# VACV Venus inh: inhibitors of vaccinia virus (Venus reporter); Vaccinia virus Venus reporter expression, fluorescence; Potency, µM (doses to about 36.5 µM), inactives show at the highest dose activity change, negative = inhibition, usual class: inhibitors; hit rate 0.46% among 330,000; AID 720580; active means well fitted inhibition curve with a large enough effect; inconclusive means small, poorly fitted or top-dose-only effect; inactive means no such curve, though single readings can be large or run the other way; tested in A549 cells; also: nearly all actives have a fitted effect of over 30% in size; inactives centre near -10
# Vaccinia mCherry: inhibitors of vaccinia virus infection (mCherry reporter signal) | Vaccinia virus mCherry reporter infection, fluorescence; about a quarter of the inactives have no number | Potency, µM (series often up to 36.5 µM), for the others: at the top dose activity change, negative = inhibition, hits mostly inhibitors | hit rate 0.63% among 310,000 | AID 720579; active = well fitted inhibition curve with a large enough effect; inconclusive = small, poorly fitted or top-dose-only effect; inactive = no such curve, though single readings can be large or run the other way; tested in A549 cells; also: nearly all actives have a fitted effect of over 35% in size; inactives centre near -10
# Active calls of the source: *; i = inactive; ? = inconclusive; . = not tested or not shown; & = joins results of further samples; [ ] = another dose, or the depositor's remark. % is scaled to controls: 0 for no effect and ±100 for the full control effect; potency is read from the fitted curve at half-maximal effect. Random draw from the library. Share with any hit: about 0.88%.
# The line under a structure holds: VACV Venus inh | Vaccinia mCherry
C[C@H]1CN([C@@H](C)CO)C(=O)Cc2cc(NC(=O)C3CC3)ccc2O[C@H]1CN(C)Cc1ccc(Oc2ccccc2)cc1
  ? | ?
COc1cc(OC)c(NC(=O)CCCn2nc(C)c3c(C)n(-c4ccccc4)nc3c2=O)cc1Cl
  -7% | -8%
NC(=S)c1ccc(OCCCc2ccccc2)cc1
  -9% | -6%
COc1ccc(NC(=O)C2CCCN(c3ncccn3)C2)cc1 (centres undefined)
  0% | i
O=C(NC(=S)Nc1ccc2oc(-c3cccnc3)nc2c1)c1cccc(Cl)c1
  1% | .
O=C(N[C@H]1C/C=C\C[C@H](CC(=O)N(CCO)Cc2ccccc2)C(=O)N[C@@H](c2ccccc2)COC1=O)OCC1c2ccccc2-c2ccccc21
  ? | i
O=C(O)CCN1C(=O)S/C(=C\c2cccnc2)C1=O
  -9% | i
CC(C)(C)OC(=O)N1CCC(c2c(C(=O)Nc3ccc4c(c3)OCCO4)cnn2-c2ccccc2)CC1
  -7% | -5%
COc1ccc(C2=NC(c3ccccc3)=Nc3ccc(C)cc3N2)cc1
  -10% | -14%
O=C(CNc1cc(S(=O)(=O)N2CCOCC2)ccc1NCC1CCCO1)Nc1cccc(F)c1 (centres undefined)
  -9% | -14%
CCN(CC(=O)N1CCOCC1)S(=O)(=O)c1ccc(F)cc1
  -16% | -2%
CCn1ccnc1CN(C)Cc1cn[nH]c1-c1ccc(OC)c(F)c1
  -15% | i
CCCCCCCCNS(=O)(=O)CCNCc1ccc(OC)cc1
  -10% | -17%
O/C(=C\c1nc2ccccc2[nH]1)c1cccs1
  -3% | i
Cc1ccsc1C(=O)C1CCCN(Cc2cccc(-n3cccn3)c2)C1 (centres undefined)
  -20% | -4%
Cc1cc(N2CCC(C)CC2)nc(SCC(=O)c2ccccc2)n1
  -18% | -17%
O=C(NO)c1ccccc1O
  -13% | -2%
CC(C)(C)C(=O)Nc1ccc(N=Nc2ccccc2)cc1
  -11% | ?
COC(=O)c1c(NC(=O)CN2CCC3(O)CCCCC3C2c2ccc(F)cc2)sc(C)c1C (centres undefined)
  -13% | i
COc1ccc(OC)c(/C=C2\N=C(c3ccccc3)OC2=O)c1
  3% | i
O=C(NC(=S)Nc1ccc(NC(=O)c2cccs2)cc1)c1ccc([N+](=O)[O-])cc1
  -1% | -1%
COc1ccc(NC(=O)N(CCC(C)C)C(C)c2cccs2)c(OC)c1 (centres undefined)
  -20% | -17%
O=C(c1ccc(S(=O)(=O)N2CCOCC2)cc1)N1CCN=C1SCc1cccnc1
  -13% | i
CCNc1nc(NCC)nc(N/N=C/c2ccc(Br)cc2)n1
  -24% | -29%
O=C(O)C1CCN(C(=O)CCc2ccccc2)CC1
  -9% | -10%
CCOC(=O)c1ccc(NC(=O)c2ncn3c2C(=O)N[C@H](C)C3)cc1
  -15% | i
O=C(OCC(=O)c1c[nH]c2ccccc12)c1cccc(S(=O)(=O)N2CCCCCC2)c1
  -5% | -18%
O=C(CN1CCSCC1)N/N=C/c1ccc(F)c(F)c1
  8% | -15%
O=C(Nc1ccccc1-c1nnn(CC(=O)N2CCCc3ccccc32)n1)c1cccc(Cl)c1
  -7% | -16%
O=C(C[C@@H]1C/C=C/CC[C@@H](Cc2ccc(F)cc2)C(=O)O[C@@H](c2ccccc2)CNC1=O)NCCO
  -17% | i
O=C1c2ccccc2-c2cccc3cccc1c23
  -1%&9% | -6%&0%
Cc1cc(C)cc(NC(=O)C2CCN(S(=O)(=O)c3c(C)noc3/C=C/c3ccco3)CC2)c1
  6% | -3%
O=S(=O)(c1ccc(Cl)cc1)N1CCN(c2nc(-c3ccccc3)nc3ccccc23)CC1
  -11% | -19%
Cc1ccc(C(=O)N2CCN(c3ccc(NC(=O)c4cccnc4)cc3)CC2)cc1
  -12% | -6%
Cc1cc(C)cc(NC(=O)C(=S)NCc2ccccc2)c1
  -7% | ?
Cn1cc(CCC(=O)NC2CC2)c2ccccc21
  -6% | i
O=C(NCCc1ccccc1)c1cccc2c1C(=O)c1ccc(N3CCOCC3)cc1S2(=O)=O
  -7% | i
COC(=O)[C@H]1C[C@@]2(O)CN(S(=O)(=O)c3ccc(C)cc3)C[C@@]2(OC(=O)NCc2ccccc2)C[C@H]1C(=O)OC
  -15% | i
CCOC(=O)C1(C)NC(c2ccc(OC)c(OC)c2)C2C(=O)N(c3cccc(C(C)=O)c3)C(=O)C21 (centres undefined)
  -8% | -7%
CCCCN(C)c1c(C)nc2ccc(C(=O)NCCOc3ccc(OC)cc3)cn12
  -15% | 32%[activator]
CCOC(=O)[C@]12CCCC=C1N(Cc1cccc3ccccc13)C(=O)[C@H](CC(=O)NCCCOC)C2
  -13% | i
O=C(c1ccncc1)N(c1ccc2oc3c(c2c1)CCCC3)S(=O)(=O)c1cccc([N+](=O)[O-])c1
  -10% | i
CCOc1cccc2c1OC1(CCCCC1)N1N=C(c3cccnc3)CC21 (centres undefined)
  -2% | i
O=C(O)CCCN1C(=O)C2C3CCC(O3)C2C1=O (centres undefined)
  -12% | -9%
COc1ccc([N+](=O)[O-])cc1N(CC(O)CN1CCCC1)S(=O)(=O)c1ccc(C)cc1 (centres undefined)
  -9% | -18%
COc1ccc(Nc2oc(/C=C/c3ccc(F)cc3)nc2C#N)cc1
  -4% | -7%
COC(=O)c1ccc(NC(=O)CC2C(=O)N(c3ccccc3)C(=O)N2C2CCCC2)cc1 (centres undefined)
  -4% | -1%
Cc1nc(SCC(=O)NC(=O)NCCC(C)C)c2c(-c3cccs3)csc2n1
  -17% | -4%
COc1cc2ccccc2cc1C(=O)Nc1ccc(CN2CCOCC2)cc1
  -1% | -2%
O=C(/C=C\c1ccc2c(c1)OCO2)Nc1c2c(nn1-c1ccc(Cl)cc1)CSC2
  -17% | i
Cc1ccc(Cn2nnc3sc4c(c3c2=O)CCC(C)C4)cc1 (centres undefined)
  -2% | -8%
Cc1cc(NC(=O)CSc2nc(N)c(NC(=O)c3ccccc3F)c(=O)[nH]2)no1
  -10% | i
CC(=O)C1=C(O)C(=O)N(Cc2cccnc2)C1c1ccc(O)cc1 (centres undefined)
  -9% | 2%
O=C(Nc1ccc(Br)c2cccnc12)c1ccc(Cn2cc([N+](=O)[O-])cn2)o1
  -11% | 0%
Nc1nn(-c2ccccc2)c(N)c1N=Nc1ccccc1F
  ? | ?
COc1ccc(/C=N/Nc2nnc(Cc3ccccc3)c(=O)[nH]2)cc1
  -1% | -2%
COc1ccc(/C=C/C=C2\N=C(SC)SC2=O)cc1
  -5% | i
COc1cccc(OCC(=O)NNC(=O)CCc2ccccc2)c1
  -4% | -25%
O=C(O)CCC(=O)N1CCc2cc(S(=O)(=O)NCc3ccc(F)cc3)ccc21
  -2% | 3%
Cc1ccc(C)c(N2CCN(C(=O)c3ccc(CSc4nc5ccncc5[nH]4)cc3)CC2)c1
  -20% | -15%

# Rewritten with each value named: part of the list above
CC(=O)C1=C(O)C(=O)N(Cc2cccnc2)C1c1ccc(O)cc1 (centres undefined)
- VACV Venus inh: -9%
- Vaccinia mCherry: 2%
O=C(Nc1ccc(Br)c2cccnc12)c1ccc(Cn2cc([N+](=O)[O-])cn2)o1
- VACV Venus inh: -11%
- Vaccinia mCherry: 0%
Nc1nn(-c2ccccc2)c(N)c1N=Nc1ccccc1F
- VACV Venus inh: ?
- Vaccinia mCherry: ?
COc1ccc(/C=N/Nc2nnc(Cc3ccccc3)c(=O)[nH]2)cc1
- VACV Venus inh: -1%
- Vaccinia mCherry: -2%

# Going on with the list.
# The line under a structure holds: VACV Venus inh | Vaccinia mCherry
C/C(Nc1ccc(C)cc1)=C(/C#N)C(N)=O
  -13% | -21%
Cc1cc(O)c2c(-c3ccccc3)cc(=O)oc2c1
  ? | ?
Cc1ccccc1Cn1cc(CCC(=O)NCc2cccc(Br)c2)c2ccccc21
  -15% | -18%
O=C1c2ccccc2C2(c3ccc(Cl)cc3)NCCN12 (centres undefined)
  -4% | -1%
CC[C@H](C)[C@@H](C(=O)N1CCNCC1)n1cc([C@@H](N)CO)nn1
  1% | i
Cc1cc(C)n2nc(CNS(=O)(=O)c3ccccc3)nc2n1
  -4% | -5%
Nc1ccc(C(=O)N2CCN(S(=O)(=O)c3ccc(Cl)cc3)CC2)cc1[N+](=O)[O-]
  ? | ?
CN(N)C(=S)Nc1ccc(Cl)cc1
  5% | i
Cc1ccc2nc(SCC(=O)Nc3cc(C)on3)nc(=O)n2c1
  -8% | i
Cc1cc(CN(C)C(=O)CC2C(=O)NCCN2Cc2ccc(F)c(F)c2)on1 (centres undefined)
  -3% | -4%
O=C(Cc1ccsc1)N1CCN(S(=O)(=O)c2ccccc2F)CC1
  -7% | -18%
C=CCNC(=S)NNC(=O)CC12CC3CC(CC(C3)C1)C2
  -10% | i
O=C(NCCOc1ccccc1-c1ccccc1)c1ccco1
  -14% | i
Cc1cc(C)c(C(=O)CC2(O)C(=O)Nc3ccccc32)cc1C (centres undefined)
  -14% | .
O=C(CSc1ccc(Cl)cc1)Nc1ccccc1N1CCN(C(=O)c2ccccc2)CC1
  ? | .
COc1ccc(CNC(=O)c2cc3c(-c4ccccc4F)nn(C)c3s2)cc1
  -26% | ?
CCCCN1C(=O)C(O)(c2c(C)[nH]c3ccccc23)c2ccccc21 (centres undefined)
  -4% | -3%
Cc1cc(O)ccc1-c1cc(C(=O)NCc2cc(C(F)(F)F)cc(C(F)(F)F)c2)[nH]n1
  -5% | -15%
O=C(NCCCN1CCOCC1)c1cccc(S(=O)(=O)N2CCN(c3ccccc3)CC2)c1
  -20% | -7%
C[C@H](CO)N1C[C@H](C)[C@@H](CN(C)Cc2ccncc2)OCCCC[C@H](C)Oc2ccc(NC(=O)CCCN(C)C)cc2C1=O
  -1% | 5%
CCC(C)c1ccc(NC(=S)Nc2ccc(OC)cc2)cc1 (centres undefined)
  -17% | -28%
Fc1ccc(-n2cc(-c3ccccc3)c3c(NCCc4ccccc4)ncnc32)cc1
  -13% | -19%
Cc1cc(NCCCN)nc(-c2ccccc2O)n1
  -19% | .
CCOC(=O)c1c(NC(=O)CSc2nnc(C)s2)sc2c1CCCCC2
  -24% | ?
NS(=O)(=O)c1cccc(NC(=O)c2ccc(S(=O)(=O)N3CCCCCC3)cc2)c1
  -20% | ?
Nc1nc(N)c(N=O)c(Nc2cccc(Cl)c2)n1
  5% | -4%
CCOc1ccc(NC(=O)N2CCOc3ccccc32)cc1
  3% | -10%
CC(C)(C)OC(=O)N1Cc2ccccc2C[C@H]1C(=O)O
  2% | -8%
COc1cccc(C(=O)Nc2c3c(nn2-c2ccccc2C)CS(=O)C3)c1OC (centres undefined)
  2% | -11%
O=C1C2C3C=CC(CC3)C2C(=O)N1c1ccccc1F (centres undefined)
  -5% | ?
CCc1ccc(C(O)c2ncc(-c3ccccc3Cl)[nH]2)cc1 (centres undefined)
  -4% | 20%
CC(=O)c1cccc(NC(=O)CN2C(=O)NC(C)(C)C2=O)c1
  -2% | -6%
NC1=NC(=O)CC(C(=O)NCCc2ccccc2)S1 (centres undefined)
  -8% | -6%
COC(=O)CC1C(=O)NCCN1C(=O)NC1CCCCC1 (centres undefined)
  10% | -5%
O=C(C[C@H]1C(=O)N(c2ccc(Br)cc2)C[C@@H]1Cc1ccccc1)Nc1ccccc1
  -16% | -3%
COc1ccc(OC)c(NC(=O)c2cccc3c2C(=O)N(C2CCCCC2)C3)c1
  -16% | ?
O=S(=O)(NCc1ccc2c(c1)OCO2)c1ccc(F)cc1
  -14% | -11%
COc1ccc(C(C)(C)NC(=O)C2CCC(=O)N(C3CC3)C2)cc1OC (centres undefined)
  -3% | i
COC(=O)c1ccc(NC(=O)c2nn(C)c3c2COc2ccccc2-3)cc1
  8% | 18%
O=C(CSC1=NCCS1)N1N=C(c2cccs2)CC1c1ccc(F)cc1 (centres undefined)
  -16% | -20%
Cc1cccc(CN2C(=O)c3ccccc3Sc3ccc(C(=O)NCCN4CCOCC4)cc32)c1
  -11% | -21%
Nc1nc(SCC(=O)N2CCCCC2)[nH]c(=O)c1NC(=O)c1cccs1
  1% | -5%
CCC(=O)Nc1cc(C(=O)O)ccc1S(=O)(=O)c1ccc(C)cc1
  4% | -10%
CCCCN1CC(c2nc3ccccc3n2CCCCOc2ccc(C)c(C)c2)CC1=O (centres undefined)
  -20% | -15%
O=C(CCS(=O)(=O)c1nc(-c2cccs2)cc(C(F)(F)F)n1)Nc1ccc(OC(F)(F)F)cc1
  2% | -12%
O=C(CCn1c(=O)oc2ccccc21)Nc1ccc(C(=O)O)cc1
  0% | -19%
O=c1c2c(-c3ccc(Cl)cc3)ccnc2[nH]n1-c1ccccc1
  -1% | -3%
Cc1ccc2c(c1)c1c3n2CCN(C(=O)c2ccc(C(F)(F)F)cc2)C3CCC1 (centres undefined)
  6% | 1%
Cc1ccc2sc(C)[n+](CCO)c2c1
  5% | -4%

# Filtered by structure, the compounds so far with a cyano group
# The line under a structure holds: VACV Venus inh | Vaccinia mCherry
COc1ccc(Nc2oc(/C=C/c3ccc(F)cc3)nc2C#N)cc1
  -4% | -7%
C/C(Nc1ccc(C)cc1)=C(/C#N)C(N)=O
  -13% | -21%

# Source: PubChem (National Center for Advancing Translational Sciences (NCATS))
